RecA intein inh = Mtb RecA intein splicing inhibition. actives 0.75% (n = 290,000). AID 2221. cell-free RecA intein splicing, fluorescence. inhibition, %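 (about 9 µM by stock and volumes)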; in the data active = inhibition above about 30%; inconclusive = no clear call, values can overlap the other calls;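 also: 0% = vehicle wells and 100% = reference inhibitor control wells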
Target sequence (P9WHJ3 whole entry, looked up): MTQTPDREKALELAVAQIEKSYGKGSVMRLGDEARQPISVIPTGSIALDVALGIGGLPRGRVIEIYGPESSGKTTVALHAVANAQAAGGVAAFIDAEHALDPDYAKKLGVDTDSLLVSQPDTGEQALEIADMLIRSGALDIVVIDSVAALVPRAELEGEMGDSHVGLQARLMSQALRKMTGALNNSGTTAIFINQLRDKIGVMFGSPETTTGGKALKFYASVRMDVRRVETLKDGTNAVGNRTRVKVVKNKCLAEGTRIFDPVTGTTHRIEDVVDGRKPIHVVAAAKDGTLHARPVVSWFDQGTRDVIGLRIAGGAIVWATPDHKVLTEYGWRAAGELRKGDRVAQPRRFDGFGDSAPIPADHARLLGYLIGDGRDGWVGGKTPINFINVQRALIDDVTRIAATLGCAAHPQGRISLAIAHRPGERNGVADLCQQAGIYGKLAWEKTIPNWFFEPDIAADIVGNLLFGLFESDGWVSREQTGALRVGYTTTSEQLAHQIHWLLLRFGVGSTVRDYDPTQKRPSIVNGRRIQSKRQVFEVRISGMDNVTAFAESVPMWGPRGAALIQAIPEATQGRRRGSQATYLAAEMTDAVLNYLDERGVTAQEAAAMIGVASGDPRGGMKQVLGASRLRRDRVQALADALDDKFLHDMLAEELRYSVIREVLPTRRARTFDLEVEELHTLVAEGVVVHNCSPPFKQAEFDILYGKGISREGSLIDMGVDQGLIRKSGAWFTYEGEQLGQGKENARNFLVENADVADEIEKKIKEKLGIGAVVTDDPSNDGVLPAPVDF
Mtb H37Rv = M. tuberculosis H37Rv growth inhibitors, H37Rv strain (AID 1626); actives 0.95% (n = 220,000); inhibition, % at 10 µM; hits with a dose series show IC50 in µM; M. tuberculosis H37Rv growth inhibition; higher % means a stronger effect;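 active = confirmed in a dose series; inconclusive = inhibition above 80% but not taken into the dose series; inactive = below 80% or under 30% at every dose of the series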;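 also: bacteria incubated seven days before Alamar blue readout; 0% = bacteria only wells and 100% = bacteria with antibiotic wells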
Mtb bLac sens = beta-lactam sensitization of Mtb H37Rv; actives 0.27% (n = 330,000); inhibition, % at 25 µM; M. tuberculosis H37Rv growth with meropenem, percent inhibition; hits of this screen are not shown here;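 active = about 74% or more and at least 40 points above the plate without the antibiotic, then above 30% in a dose series; inconclusive = first-round hits that could not be retested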;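 also: growth measured after seven days incubation then overnight dye step; 0% = bacteria only wells and 100% = bacteria with antibiotic; twin plates without the antibiotic show which effects depend on it; some results filed as inactive read as strong as hits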
YopH inh = inhibitors of Yersinia enterocolitica YopH tyrosine phosphatase | fluorescence Ex485/Em525 | inhibition, %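 (about 10 µM by stock and volumes)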 | actives 0.16% (n = 140,000);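 active = inhibition of 50% or more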;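 also: controls were vehicle for no effect and minimum signal wells for full effect; inactives centre near -20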
Arbovirus inh = antivirals against arbovirus infection | actives 0.37% (n = 200,000) | inhibition, % at 10 µM | arbovirus infection cell-based antiviral screen;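 active = inhibition from about 30%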;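 also: bluetongue infection of BSR cells; cell survival read as ATP light after 72 h; 0% = infected wells without compound and 100% = uninfected wells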
Arbovirus inh repeat = further read-out of Arbovirus inh, marked with its call; inhibition, %; measured here: 10K subset replicate screen; many hits read low in the repeat;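 first of two repeat runs on a subset; 0% = infected and 100% = uninfected wells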
* marks the source's active call; other numbers are inactive results; u = inconclusive; x = not tested or not shown.

SMILES	RecA intein inh	Mtb H37Rv	Mtb bLac sens	YopH inh	Arbovirus inh	others
CCOC(=O)N1CCC(N(CCN(C)C)C(=S)Nc2cccc(Cl)c2)CC1	-2.3	1.0%	-1.0	x	12.2
COc1ccc(-n2ccnc2SCC(=O)NO)cc1	-3.4	7.5%	-10.3	x	-7.0
CCOc1cc(/C=C2/NC(=O)N(CC(=O)Nc3cccc(C)c3)C2=O)ccc1OC	-4.0	3.5%	-4.1	7.2	-8.3
Cc1sc2ncnc(SCC(=O)NC(=O)NCc3ccco3)c2c1C	-3.0	-2.1%	11.7	-25.3	4.5
CN(CC(=O)Nc1ccccc1C(F)(F)F)C(=O)CSCc1ccc(Cl)c(Cl)c1	0.2	x	-7.0	x	x
CCCC(=O)Nc1cc(C(=O)O)ccc1Sc1ccccc1	x	-4.9%	-2.8	x	4.0
O=C(NC1CCCCC1)C(c1ccc(Cl)cc1)N(C(=O)c1ccccn1)c1cccnc1 (stereo not given)	-4.2	-4.3%	-3.1	x	-5.0
NC(=O)CC(NC(=O)Cc1ccc(Cl)cc1)c1ccc(NC2CCCC2)c([N+](=O)[O-])c1 (stereo not given)	0.0	-12.9%	-1.4	x	x
CCN1CCN(C(=O)CCCCCn2c(=O)[nH]c3cc(C(=O)OC)ccc3c2=O)CC1	x	-6.1%	3.9	-7.3	19.1
COc1ccc(S(=O)(=O)N2CCOCC2)cc1Cl	-0.2	6.0%	4.8	-7.9	2.8
COc1cc(NC(=O)CSc2ncnc3sc4c(c23)CCCC4)c(C(=O)O)cc1OC	-2.8	x	-0.3	x	x
CC1=NN(c2ccccc2)C(=O)/C1=C\c1ccc(Oc2ccc([N+](=O)[O-])cc2[N+](=O)[O-])cc1	84.3*	15.1%	5.8	-18.9	-1.6
CCc1nnc(NC(=O)CCC(=O)N2CCN(C3CCCCC3)CC2)s1	0.8	-2.1%	3.4	-17.1	2.2
Cc1ccc(C(=O)c2oc3ccccc3c2N)cc1	1.3	17.9%	60.4	-81.0	-5.2
CN(Cc1cnn(C)c1)C(=O)C1CCCCC1C(=O)O (stereo not given)	x	0.8%	-3.9	-27.5	2.4
COc1cc(/C=C/c2cc[n+](C)cc2)ccc1OCC(=O)Nc1ccccc1	-1.3	x	-4.8	x	x
COC(=O)CCC(NC(=O)c1cc(C)oc1C)C(=O)OC (stereo not given)	-2.7	-2.3%	-11.4	-77.3	1.1
O=C1Oc2ccccc2C(=O)/C1=C/c1ccccc1O	4.3	1.4%	14.3	x	-2.8
Cc1c(NC(=O)Nc2cccc(Cl)c2)c(=O)n(-c2ccccc2)n1C	0.8	0.1%	-0.9	-33.5	-5.0
COc1cccc(-c2nnc3sc(-c4ccccn4)nn23)c1	-5.2	8.0%	3.6	-42.4	-0.8
CCCc1cc(C(N)=O)c(NC(=O)c2ccoc2C)s1	13.9	11.0%	84.5	9.8	-5.0
O=C(NC(=S)Nc1ccc(S(=O)(=O)Nc2ncccn2)cc1)c1ccc(Br)cc1	0.0	-3.6%	-1.5	x	-1.6
O=S1c2ccccc2Nc2ccccc21	-2.8	x	-9.7	x	x
CC(=O)N1CCc2c(sc(NC(=O)C3CCN(S(=O)(=O)c4cccs4)CC3)c2C(N)=O)C1	-1.4	x	1.7	x	x
COc1ccc(P2(=O)Nc3ccccc3N2)cc1	-7.7	2.1%	0.0	-24.6	-13.9
COc1cc(-c2cc(N)n(S(=O)(=O)c3ccc(F)cc3)n2)cc(OC)c1OC	-1.8	3.4%	0.7	-42.3	-11.8
CCCCn1c(NCCO)nc2ccccc21	-1.2	-2.3%	0.1	-20.1	7.1
COc1cc(NC(=O)NCCN2CCN(c3ccc(Cl)cc3)CC2)ccc1C	-1.4	46.1%	70.3	45.6	1.8
C=CCn1nnnc1-c1cc(Cl)cc(Cl)c1	0.4	2.4%	0.1	x	-1.0
Cn1c(SCCCC(=O)c2ccccc2)nnc1-c1ccncc1	-4.2	1.7%	-13.6	-29.3	10.1
Cc1occc1C(=O)N/N=C/C=C\c1ccccc1[N+](=O)[O-]	-1.1	-13.9%	3.0	x	-0.9
CCCCNC(=O)N1CCN(C(c2ccccc2)c2ccccc2)CC1	-0.4	x	-7.3	x	x
Cc1occc1C(=O)N1CCCC(N2CCN(c3cccc(C(F)(F)F)c3)CC2)C1 (stereo not given)	3.9	x	-9.9	x	x
COc1ccccc1NC(=O)Cn1ncc2c1-c1ccccc1OC2	0.2	1.9%	2.9	-11.0	0.9
COc1ccc2c(c1)CC/C2=N\NC(=O)c1ccccc1	4.1	-4.0%	1.6	-25.7	-5.5
Cc1c(C)c(C)c(C(=O)C2CCN(c3ccc([N+](=O)[O-])cn3)CC2)c(C)c1C	-2.9	-0.2%	-0.5	x	x
COc1ccc(NC(=O)CSc2nc(N3CCCCC3)nc(N3CCCCC3)n2)cc1	-0.4	-0.1%	5.9	16.7	2.0
O=C(NCCC1=CCCCC1)C1CCN(c2nc3ccccc3o2)CC1	0.5	1.0%	56.7	4.0	10.3
CCOC(=O)CN1C=C(c2ccc3ccccc3n2)C(C[N+](=O)[O-])c2ccccc21 (stereo not given)	-115.4	-1.8%	-8.4	-9.0	0.8
CCC(=O)N1c2ccc(S(=O)(=O)CCC(=O)N3CCN(c4ccccc4F)CC3)cc2CC1C (stereo not given)	0.7	x	-1.3	x	x
COc1ccc(S(=O)(=O)N2CCC(C(=O)Nc3ccccc3N3CCCCC3)CC2)cc1OC	2.8	x	-4.1	x	x
Cn1ccc(C(=O)OCC(=O)c2ccccc2)n1	0.6	-14.2%	-2.2	-17.7	3.9
Cc1ccc(-c2nc3ccccc3[nH]2)cc1NC(=O)c1ccco1	x	4.1%	74.2	-31.5	-5.8
CC1(C)CN(c2ccc(-c3ccnc4ncnn34)cc2)C1=O	-5.9	-2.5%	0.9	x	-0.1
O=S(=O)(c1ccc(Cl)cc1)N1CCN(Cc2ccc(O)c3ncccc23)CC1	-0.4	-3.7%	-4.0	x	-28.7
CC12COC3(C(=O)Nc4ccc(Cl)cc4)CC1CCC32C (stereo not given)	-0.4	2.9%	12.3	-45.6	2.6
Cc1nc2n(n1)C(O)c1cc([N+](=O)[O-])ccc1S2 (stereo not given)	0.2	-6.2%	-3.4	x	-5.6
COc1ccc(N=Cc2c(O)n(-c3cccc(C)n3)c(=O)c3ccccc23)c(OC)c1	-3.0	-4.3%	5.7	x	x
Cc1ccc(CNC(=O)C2=NNC(=O)CC2)cc1	-1.0	-7.5%	-8.4	-15.8	-1.8
N#CC1=C(N)N(c2ccccc2)C(c2cccc([N+](=O)[O-])c2)C1(C#N)C#N (stereo not given)	39.0*	6.9%	14.7	-36.6	7.5

Of the compounds above, two have a CF3 group.
SMILES	RecA intein inh	Mtb H37Rv	Mtb bLac sens	YopH inh	Arbovirus inh	others
CN(CC(=O)Nc1ccccc1C(F)(F)F)C(=O)CSCc1ccc(Cl)c(Cl)c1	0.2	x	-7.0	x	x
Cc1occc1C(=O)N1CCCC(N2CCN(c3cccc(C(F)(F)F)c3)CC2)C1 (stereo not given)	3.9	x	-9.9	x	x

Continued:
SMILES	RecA intein inh	Mtb H37Rv	Mtb bLac sens	YopH inh	Arbovirus inh	others
C[C@@H](O)C1NC(=O)[C@H](CCCCN)NC(=O)c2cc([N+](=O)[O-])cc(I)c2OCC[C@@H](C(N)=O)NC1=O (stereo not given in full)	3.0	-15.6%	-3.6	-24.2	-4.4
Cc1cc(C)c2c(CN3CCOCC3)cc(=O)oc2c1C	-2.4	0.0%	-6.0	x	x
COc1cc(C(=O)NC(=S)Nc2cccc3nc(C)ccc23)cc(OC)c1OC	-1.9	-6.6%	5.6	x	x
CC1CCC2C(=O)N(c3cccc(C(=O)Nc4ccc(F)cc4)c3)C(=O)C2C1 (stereo not given)	-1.9	x	-12.1	x	x
CCOC(=O)C1=C(C)N(C)C(=O)NC1c1ccc2c(c1)OCO2 (stereo not given)	2.1	x	-7.3	x	x
Cc1cc(N/N=C/c2ccccc2O)nc(N2CCOCC2)n1	-2.7	-6.0%	4.3	x	x
Cc1ccc(NC(=O)Cn2cc(C(=O)C3CC3)c3ccccc32)c(C)c1	-1.7	x	8.8	x	x
C=CC[n+]1c(C)csc1Nc1cccc(Br)c1	8.4	2.7%	-4.5	x	13.2
Cc1cccc(C(=O)Nc2nnc(S(=O)(=O)N(C)Cc3ccco3)s2)c1	-1.9	x	u	x	x
CCc1c(C)c2ccc(OCC(=O)OC(C)C)c(C)c2oc1=O	1.2	u	u	4.7	1.4
CC(C)Oc1ccccc1/C=N/NC(=O)c1ccccc1Cl	1.8	-3.9%	-5.2	x	x
COc1cc(/C=C/C(=O)c2ccc3c(c2)OCCO3)cc(Br)c1OCC(=O)N(C)C	5.3	x	98.7	x	x
CCCCC(=O)Nc1ccc(NC(=O)C2CC2)cn1	-1.9	4.3%	-4.1	-48.1	-1.3
Nc1ccc(SCc2cccnc2)cc1	-0.6	x	89.2	x	x
O=C1C(=O)N(Cc2cccnc2)C(c2ccccn2)/C1=C(/O)c1ccccc1 (stereo not given)	0.1	-3.4%	-8.4	-39.8	2.6
CN(CCCC(=O)O)c1ccc(N=Nc2ccc([N+](=O)[O-])cc2)cc1	9.4	x	57.0	x	x
COc1ccc(C(=O)On2c(-c3ccc(Br)cc3)nc3ccccc3c2=O)cc1	1.8	u	86.5	-8.4	-6.8
COc1ccc(NC(=O)C2Cc3ccccc3C(=O)O2)cc1 (stereo not given)	1.2	7.2%	-1.9	x	3.7	Arbovirus inh repeat=3.0
CC(C)c1c(O)nc(SCC(=O)Nc2ccc3c(c2)CCC3)[nH]c1=O	5.4	32.8µM*	97.8	-15.0	1.6
CC(C)(C)C(=O)Nc1nc2c(s1)CN(Cc1ccccc1)CC2	-23.4	2.4%	-1.9	x	6.7
S=C=Nc1ccccn1	-3.4	-0.6%	0.4	x	2.7
O=S(=O)(c1cc(C(F)(F)F)ccc1Cl)N1CCCCCC1	1.7	3.3%	-4.8	3.3	-0.5
O=C(Cc1ccccc1)NCC(=O)OCC(=O)c1ccc(F)cc1	-2.8	x	0.2	x	x
CCn1c(SCC(=O)N2CCCCCC2)nc2ccccc2c1=O	-0.2	x	-4.8	x	x
CC(C)(C)NC(=O)c1cc(C(C)(C)C)c(O)c(C(C)(C)C)c1	-1.8	-2.6%	6.3	-23.1	10.4
O=C(/C=C/c1ccc(F)cc1)c1ccc(N2CCOCC2)cc1	-0.7	-3.9%	-2.0	x	x
c1ccc(N2CCN(c3nc4cc5c(cc4s3)OCO5)CC2)cc1	0.9	-13.4%	0.9	-14.2	-1.5
CC(=O)NC1=NN(C(C)=O)C(c2ccccc2)S1 (stereo not given)	2.2	-3.6%	0.4	x	5.2
COc1ccc(OC)c(NC(=O)c2ccc(S(=O)(=O)N3CCOCC3)cc2)c1	1.6	x	-2.7	x	x
COc1ccc(CCNC(=O)C2CCN(C(=O)c3ccccc3C)CC2)cc1	-1.2	x	2.9	x	x
COC(=O)C(C#N)C(c1cccnc1)c1c(C)[nH][nH]c1=O (stereo not given)	85.3*	-6.2%	3.2	-13.7	1.9
O=C(N/C(=C\c1cccs1)C(=O)N1CCOCC1)c1cccs1	-4.7	-2.1%	-4.4	x	-3.8
Cc1ccc(NC(=O)CSCc2ccco2)cc1	0.5	45.0%	98.3	x	3.0
O=C(NCc1cccnc1)Nc1ccc(Cl)cc1	-1.3	x	-1.3	x	x
O=C(OCc1ccccc1)C1=NNC2C(=O)N(c3ccccc3)C(=O)C12 (stereo not given)	-1.9	x	-8.9	-13.3	2.4
COc1ccc(N=c2sc3ccccc3n2C)cc1	x	5.6%	-2.1	-19.2	5.4
Cc1ccc(C(=O)Nc2ccccc2C(=O)NCc2cccnc2)cc1	-5.0	x	-4.4	x	x
CCOC(=O)C1CCN(C(=O)c2cc(CN3C(=O)c4ccccc4C3=O)ccc2OCC)CC1	-2.4	x	-0.8	x	x
O=C(CN1C(=O)NC2(CCOc3ccccc32)C1=O)Nc1cccc(Cl)c1 (stereo not given)	0.9	2.7%	3.5	x	5.9
CCc1ccc(-c2nnn(CCC#N)n2)cc1	-2.1	7.2%	-5.0	x	7.7
O=C(Nc1cccc2c1CCCC2)c1ccccc1F	-4.4	x	12.6	x	x
O=C(NCC(=O)N(c1ccc2c(c1)OCO2)C(C(=O)NC1CCCC1)c1cccs1)c1ccco1 (stereo not given)	-2.0	-1.2%	-7.7	-4.2	3.0
O=C(Cc1ccccc1)N1CCc2[nH]nc(-c3ccccc3)c2C1	0.0	x	-9.1	x	x

Compounds above that have a tert-butyl group, in the order listed:
SMILES	RecA intein inh	Mtb H37Rv	Mtb bLac sens	YopH inh	Arbovirus inh	others
CC(C)(C)C(=O)Nc1nc2c(s1)CN(Cc1ccccc1)CC2	-23.4	2.4%	-1.9	x	6.7
CC(C)(C)NC(=O)c1cc(C(C)(C)C)c(O)c(C(C)(C)C)c1	-1.8	-2.6%	6.3	-23.1	10.4

High-throughput results as filed in PubChem BioAssay.

This is a subset (hit frequency here may not be typical).
